Anaer choline gr = blocks anaerobic gram-negative growth on choline | Gram-negative bacterium anaerobic choline minimal medium, absorbance growth; stronger effect = lower value; many inactives read as strong as hits in the columns shown | calls only | 0.2% of 55,000 active | AID 1963822;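 active = growth z-score on choline under -2 at 7 or 20 h with little or no fall on glycerol, limits in tiers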;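 note: stock transfer was 300 nL into about 50 µL; the organism is E. coli; final concentration not given here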
Anaer choline gr early = recorded beside Anaer choline gr, whose call it bears; z-score; measured here: choline growth z-score, timepoint 1;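 score of optical density at 7 h as mean of two plates; lower means less growth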
An asterisk follows results filed as active; i = inactive; & = joins results of further samples. Some of the compounds tested (hit frequency here may not be typical).

SMILES	Anaer choline gr	Anaer choline gr early
CC(C)c1cc(C2CCCN2S(=O)(=O)c2ccc(F)cc2)on1 (stereo not given)	i	-0.34
Cn1c(-c2ccccc2)cnc1NC(=O)NCCc1ccccc1	i	0.77
Cc1nnc2sc(-c3ccco3)nn2c1=O	i	-0.42
COc1ccc(-c2noc(-c3cn(Cc4ccc(NC(=O)Nc5ccccc5)cc4)cn3)n2)cc1	i	1.8
CCCCC[C@H](O)/C=C/[C@@H]1[C@H]2C/C=C\CCCC(=O)O[C@H]2C[C@H]1O	i	-0.92
Cc1nn(CC(=O)NC(C)(C)C)c(C)c1S(=O)(=O)N1CCC(C(=O)N2CCc3ccccc32)CC1	i	0.19
O=C(NC1CCN(Cc2ccccc2)CC1)c1ccc(I)cc1	i	0.36
Cc1cc(NCCC(C)C)n2nc(C(F)(F)F)c(-c3ccc(F)cc3)c2n1	i	2.14
CCS(=O)(=O)c1ccc(-c2ccc(NC(=O)c3ccc(Br)cc3)cc2)nn1	i	-0.78
COc1ccc(C(=O)N(CCc2ccccc2)Cc2ccccc2)c(OC)n1	i	-0.09
O=C(CCC1CCCC1)N1CCC2(CC1)Nc1ccc(Cl)cc1-n1cccc12	i	0.21
O=S(=O)(Nc1cccc(-c2cn3ccsc3n2)c1)c1ccc(Oc2ccccc2)cc1	i	0.63
CCC(C)NC(=O)NC1CCN(C2=NS(=O)(=O)C(c3ccc(Cl)cc3)=C2C)CC1 (stereo not given)	i	1.02
CC(=O)N1CCc2cc(CNS(=O)(=O)c3ccc4c(c3)oc(=O)n4C)ccc21	i	0.65
CCn1c(C(=O)NC(C)C)cc2c(=O)oc3ccccc3c21	i	1.66
O=C(Cn1ccn2nc(-c3ccc4c(c3)OCO4)cc2c1=O)Nc1ccc(F)c(F)c1	i	0.44
CCOc1ccc2c(c1)cc(C(=O)Nc1ccc(F)cc1F)n2C	i	0.27
Cc1ccc(C2CCCN2S(=O)(=O)c2cnc[nH]2)cc1 (stereo not given)	i	0.02
COc1ccc(Nc2c3c(nc4nc(C)nn24)CCC3)cc1OC	i	-2.36
COc1ccc(N2CCN(S(=O)(=O)c3cc(-c4noc(C5CC5)n4)cs3)CC2)cc1	i	1.27
CCc1nccn1Cc1noc(CC2CCCCC2)n1	i	0.39
COc1ccc(-c2nc(OCC(=O)Nc3ccc(OC)c(OC)c3)c3c4c(sc3n2)CCCC4)cc1	i	0.24
Cc1c2c(nn1-c1ccc(SCc3ccc(Cl)cc3)nn1)CCC2	i	0.68
O=C(COCc1cc(-c2ccc(F)cc2)on1)Nc1cc(Cl)ccc1O	i	0.86
CCc1nnc2n1NC(c1ccccc1)C(C(=O)Nc1ccccc1C)S2 (stereo not given)	i	-0.69
Next entries:
SMILES	Anaer choline gr	Anaer choline gr early
COc1ccc(C)cc1S(=O)(=O)Nc1ccc2c(c1)CCCN2S(C)(=O)=O	i	-0.71
Cc1c(C(=O)N(C)C2CCCCC2)sc2ncn(CC(=O)N3CC(C)CC(C)C3)c(=O)c12 (stereo not given)	i	-1.49
COc1cc(OC)c(NC(=O)N2CCCC(C)(C(=O)NCc3ccc(F)cc3)C2)cc1Cl (stereo not given)	i	-0.61
Cc1ccnc(SCc2nc(-c3ccc4c(c3)nnn4C3CCCC3)no2)n1	i	-0.5
CN(C)S(=O)(=O)c1ccc(-c2nnc(C(=O)NC3CCN(Cc4ccccc4)CC3)o2)cc1	i	-1.72
O=C(C1CCCN(S(=O)(=O)c2cc(-c3noc(C4CCC4)n3)cs2)C1)N1CCc2ccccc21 (stereo not given)	i	-0.48
CCC(C(=O)NC)N1CCN(Cc2ccc(F)cc2)C(=O)C1=O (stereo not given)	i	0.49
CCOc1cccc(CNC(=O)c2sc3ncccc3c2-n2cccc2)c1	i	-0.91
CCOC(=O)C1CCN(C(=O)c2cc3cccc4c3n2CC(CC)O4)CC1 (stereo not given)	i	0.25
Cc1ccc(S(=O)(=O)N(CC(=O)N2CCN(c3ccccc3F)CC2)Cc2ccc(Cl)cc2)cc1	i	1.13
O=C(c1nc(-c2ccccc2)n(-c2ccc(Cl)cc2)n1)N1CCN(c2ccccc2)CC1	i	-1.14
Cc1cc(C)cc(NC(=O)CCc2c(C)nn(-c3ccc4nncn4n3)c2C)c1	i	1.43
CN(C)CCNC(=O)c1cnc2sc3c(n2c1=O)CCC3	i	-0.3
COc1ccc(S(=O)(=O)N2CCc3cc4ccccc4nc32)c(C)c1	i	0.01
CCOc1ccccc1CNC(=O)c1cc2cccc3c2n1CCO3	i	1.26
CC(C)Cn1c(=O)c(-c2ccc(C(=O)N3CCCN(C)CC3)cc2)nc2ccccc21	i	-0.12
Cc1ccccc1NC(=O)N1CCN(c2nc3cc(F)ccc3n3cccc23)CC1	i	0.76
CN(C)CCCCC(=O)Nc1ccc(NC(=S)NC(=O)c2ccc(C(C)(C)C)cc2)cc1	i	-2.41&0.44
CCOc1ccc(C(CNC(=O)c2oc3ccccc3c2C)c2c[nH]c3ccccc23)cc1OC (stereo not given)	i	-0.14
COC(=O)c1cc(S(=O)(=O)N(C)CC(=O)Nc2cc(Cl)ccc2C)cn1C	i	-0.21
CC1CCN(c2nc3ccccc3nc2SCC(=O)Nc2ccc(F)cc2)CC1	i	1.93
Cn1c(=O)c2c(nc3n(-c4ccc(F)cc4)c(-c4ccc(Cl)cc4)cn23)n(C)c1=O	i	0.29
Cc1cc(Cl)ccc1NS(=O)(=O)c1c(C)sc(C)c1-c1ccno1	i	1.08
Cc1nn(S(C)(=O)=O)c(C)c1S(=O)(=O)N(C)c1ccccc1	i	1.48
CN1CCN(C(=O)Cn2nc(N3CCN(c4ccccc4)CC3)ccc2=O)CC1	i	-0.59
Other records
SMILES	Anaer choline gr	Anaer choline gr early
Cc1cccc(CSc2nnc3n(CC(C)C)c(=O)c4sccc4n23)c1	i	0.25
COc1cc(Nc2nc(-c3nnn(-c4cc(Cl)ccc4OC)c3C)ns2)cc(OC)c1	i	-0.39
CCN(Cc1ccc(F)cc1)c1cc(=O)n2nc(-c3ccccc3)sc2n1	i	-1.72
CS(=O)(=O)N1CCCC1c1ccc(Cl)cc1 (stereo not given)	i	-0.2
CC(=O)Nc1ccc(S(=O)(=O)Nc2noc3ccccc23)cc1	i	-0.49
COc1cccc(N2CCn3c2nc2c3c(=O)n(CC(=O)O)c(=O)n2C)c1	i	-2.11
CC1=C(c2ccc(C)c(C)c2)S(=O)(=O)N(Cc2ccc(C(=O)NC3CCCC3)cc2)C1=O	i	0.42
O=C(NCCc1ccc(Cl)cc1)c1cc2ccccn2n1	i	1.07
O=C(Cn1c(N2CCCCC2)nc2ccsc2c1=O)N1CCN(c2ccc(F)cc2)CC1	i	-0.13
C=C(c1ccc(C(=O)O)cc1)c1cc2c(cc1C)C(C)(C)CCC2(C)C	i	0.26
Cc1ccc(Cn2c(=O)c(N3CCC(C(=O)NCc4cccc(Cl)c4)CC3)nc3ccccc32)cc1	i	-0.79
Cc1nc2sccn2c(=O)c1NC(=O)c1ccc(Br)cc1	i	-0.87
CC1CCN(c2ncnc3c2nnn3C)CC1	i	-0.09
O=C(Nc1cc(-n2cnnn2)ccc1Cl)C1CC1	i	-0.57
Cc1ccc(Nc2cc(N3CCN(C(=O)c4ccc(Br)cc4)CC3)ncn2)cc1	i	-0.09
CCCn1cc(C2CC(=O)N(c3ccccc3C)C2=O)c2ccccc21 (stereo not given)	i	-0.83
Cc1ccc(-c2nn(-c3ccccc3)cc2CCC(=O)NCc2ccccc2)cc1	i	3.45
COc1ccc(OC)c(S(=O)(=O)N2CCC(N3CCN(Cc4ccc(F)cc4)C3=O)CC2)c1	i	0.78
CCCCn1c(SCc2nc(-c3ccccc3)no2)nc2cc3c(cc2c1=O)OCO3	i	-0.94
OC(CN1C2=NCCN2c2ccccc21)c1ccccc1 (stereo not given)	i	-0.12
Cc1cc(C(=O)NCCCN2CCCC2=O)c2c(=O)n(C)c(=O)n(C)c2n1	i	0.03
O=[N+]([O-])c1ccc(CSc2ncnc3c2ncn3[C@@H]2O[C@H](CO)[C@H](O)C2O)cc1 (stereo not given in full)	i	-0.26
COc1ccc2[nH]c3c(c2c1)CCNC3c1cccc(O)c1 (stereo not given)	i	-1.49
CC(C)c1ccc(-c2noc(SCC(=O)N3CCN(c4ccc(F)cc4)CC3)n2)cc1	i	0.88
CCOc1ccccc1NC(=O)N1CCN(S(=O)(=O)c2ccc3c(c2)NC(=O)CO3)CC1	i	-0.93
Additional structures.
SMILES	Anaer choline gr	Anaer choline gr early
COc1cccc(N2CCN(C(=O)CCCn3nnc4cc(S(=O)(=O)N(C)C)ccc43)CC2)c1	i	-0.9
COc1cc(NC(=O)Cn2c3ccccc3n3c(=O)cc(-c4ccccc4)nc23)cc(OC)c1	i	-0.89
C=Cc1c(C)c2cc3nc(cc4[nH]c(cc5nc(cc1[nH]2)C(C)=C5CCC(=O)O)c(CCC(=O)OC)c4C)[C@@]1(C)C3=CC=C(C(=O)OC)C1C(=O)OC (stereo not given in full)	i	3.24
Cc1ccc(-c2noc(-c3nnn(Cc4nc(-c5cccc(Cl)c5)oc4C)c3C)n2)cc1	i	-0.54
CC(C)Cc1nnc(C(=O)Nc2ccc(C(=O)NCc3ccccn3)cc2)s1	i	0.76
Cc1ccc(NC(=O)C2=CSCCO2)cc1	i	-0.82
Cc1ccc(C)c(N2CCN(c3nc4ccccc4nc3C(F)(F)F)CC2)c1	i	-1.45
O=S(=O)(c1ccc(Cl)cc1)N1CCC(c2ccncc2)CC1	i	-0.16
CCCn1c(=O)c2sccc2n2c(SCc3ccc(Br)cc3)nnc12	i	0.3
CCCn1cnc2cc(-c3noc(CNC(=O)c4ccccc4)n3)ccc21	i	-0.43
Cn1nccc1C(=O)NC1CC1	i	0.65
Cc1[nH]c(C(=O)N2CCCC(C(=O)NC3CCCC3)C2)c(C)c1C(=O)OC(C)C (stereo not given)	i	-0.78
COc1ccc(CNC(=O)C(C)C2Sc3ccccc3N(Cc3ccccc3Cl)C2=O)cc1 (stereo not given)	i	0.74
Cc1nnc(-c2cc3ccccc3n2CC(=O)N2CCCCC2)o1	i	0.27
Cn1c(=O)n(Cc2ccncc2)c(=O)c2cnc(-c3ccc(Cl)cc3)nc21	i	-0.02
Fc1ccc(N2CCN(c3ccc(Cl)nn3)CC2)cc1	i	1.04
CC(=O)OCOC(c1cc([N+](=O)[O-])ccc1Oc1ccc(Br)cc1)P(=O)(OCOC(C)=O)OCOC(C)=O (stereo not given)	i	0.44
Cc1nn(-c2cc(N3CCCC3)ncn2)c(C)c1CCC(=O)N1CCCC1	i	0.47
COC(=O)CSc1nc2cc(-c3ccccc3)sc2c(=O)n1C	i	0.31
CCc1ccc(-c2cc(C(F)(F)F)on2)cc1S(=O)(=O)N1CCCCC1CC (stereo not given)	i	1.49
Fc1cc(Br)ccc1Nc1c2c(nc3ncnn13)CCC2	i	-0.37
O=C(NCc1ccccn1)c1ccc2c(c1)nc1n2CCOC1	i	-2.13
Cc1cc2nc3sc(C(=O)Nc4ccc(S(N)(=O)=O)cc4)cc(=O)n3c2cc1C	i	0.09
COc1ccc2c(c1)c(CN1CCC(C(=O)NCCN(C)C)CC1)cn2C	i	-0.59
c1ccc(-n2cc(-c3nc4ccccc4o3)cn2)cc1	i	1.33
Other results follow.
SMILES	Anaer choline gr	Anaer choline gr early
Cc1cccc(-n2nnnc2C(C)(C)N(C)C)c1	i	-1.46
Cc1ccc(-c2noc3ncnc(NCc4ccc5c(c4)OCO5)c23)cc1	i	1.55
CN(C)c1ccc(CNS(=O)(=O)c2cc(-c3nc(C(C)(C)C)cs3)cs2)cc1	i	0.51
COc1ccc(NC(=O)c2ncn3c2C(=O)N(C2CC2)C(C)(C(=O)NC2CCCC2)C3)c(OC)c1 (stereo not given)	i	0.59
Cc1cc2c(cc1S(=O)(=O)CCC(=O)N(C)Cc1ccccc1)OCC(=O)N2	i	-0.05
COc1ccc(OC)c(S(=O)(=O)NCc2ccc3c(c2)CCN3C(=O)c2ccc(F)cc2)c1	i	-0.63
Cc1ccc2ccc3cc(C(=O)Nc4ccc(F)c(Cl)c4)nc3c2[nH]1	i	0.21
Clc1nnc(N2CCCC2)c2ccccc12	i	-0.97
O=C(Nc1ccccc1Oc1ccccc1)C1CCCN(S(=O)(=O)Cc2ccccc2)C1 (stereo not given)	i	0.35
O=C(CSc1nc(N2CCCCC2)nc2ccccc12)Nc1ccc(F)cc1	i	0.24
Cc1ccc(Nc2nnc(C)c(=O)[nH]2)cc1Cl	i	-0.28
c1cc(N2CCCC2)ccc1-c1noc(C2CCCC2)n1	i	1.42
CC1(C)CCC=[N+]1[O-]	i	1.11
Cc1c(Cl)cccc1NS(=O)(=O)c1cn(C)c(C)n1	i	-1.58
CNC(=O)Nc1cc2c(cc1N1CCCC1)n(C)c(=O)n2C	i	-1.45

Screens from PubChem.
